VDR inhibitor – vitamin D3 receptor (human) inhibition | VDR-SRC2-3 peptide fluorescence polarization, 2 h | Potency, µM, inactives show max response, negative = inhibition, hits mostly inhibitors | actives 0.93% (n = 400,000); active = well fitted inhibition curve with a large enough effect; inconclusive = small, poorly fitted or top-dose-only effect, or another doubt; inactive = no such curve, though single readings can be large or run the other way; note: series mostly up to about 120 µM
Target sequence (P11473 whole entry, looked up): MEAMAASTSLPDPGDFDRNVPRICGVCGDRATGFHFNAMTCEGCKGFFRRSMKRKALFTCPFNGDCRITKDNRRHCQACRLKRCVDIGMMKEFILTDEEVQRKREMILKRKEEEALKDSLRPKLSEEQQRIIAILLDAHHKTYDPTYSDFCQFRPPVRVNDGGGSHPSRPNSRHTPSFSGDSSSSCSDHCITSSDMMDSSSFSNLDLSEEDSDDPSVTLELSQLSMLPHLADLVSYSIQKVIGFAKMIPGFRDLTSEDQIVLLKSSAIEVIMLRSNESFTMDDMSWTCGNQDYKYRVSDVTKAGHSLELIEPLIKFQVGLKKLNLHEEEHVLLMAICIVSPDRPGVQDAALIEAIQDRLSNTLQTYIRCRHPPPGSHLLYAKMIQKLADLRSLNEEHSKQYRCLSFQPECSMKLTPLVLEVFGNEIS
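Reagent solutions, kept cold and dark, are dispensed first; compounds are then pinned in at 23 nl, plates briefly spun, and incubated 2 h at ambient temperature. Inhibition of VDR–SRC2-3 peptide binding is read by fluorescence polarization.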
* hit, by the source's call; ? = inconclusive; & = joins results of further samples; [ ] = dose if it differs, or a comment. % is set by controls: 0 for no effect and ±100 for the full control effect; potency is the fitted concentration of half-maximal effect.

SMILES	VDR inhibitor
COc1ccc(C2C3C=CCCC3(C)C(=O)N2Cc2ccccc2)cc1Cl (stereo not drawn)	-8.2%
Cc1ccc2nc(/C(C#N)=C/c3ccc(-c4ccccc4C(=O)O)o3)[nH]c2c1	13.7%
CN(C)CCCN(Cc1ccc2c(c1)OCO2)C(=O)NC1CCCCC1	1.1%
CCOC(=O)C(C)n1nc(C)c2sc3ccccc3c2c1=O (stereo not drawn)	-2.0%
NC(=O)c1ccccc1NC(=O)C1CCCO1 (stereo not drawn)	-2.1%
COc1ccccc1Nc1ncnc2c1oc1ccccc12	1.9%
O=C(Nc1ccc(N2CCN(C(=O)c3ccco3)CC2)cc1)c1cccc(F)c1	15.2%
COc1cccc(N2CCN(C(=O)c3cc4c(=O)n(Cc5cccs5)ccc4nc3C)CC2)c1	6.0%
CCN(C(=O)CSc1nnc(-c2ccc(Cl)cc2)o1)c1ccccc1	9.7%
COc1ccc(C(=O)C[n+]2cccc(Br)c2)cc1	-10.0%
CCN(C(=O)c1ccnc(C(C)(C)C)c1)c1ccccc1	7.7%
Cc1ccc(NC(=O)C/C(N)=N/OC(=O)Nc2cccc(C)c2)cc1	21.5%
CCc1ccc(-n2c(-c3ccccc3)c(C)n3c4c(=O)n(C)c(=O)n(C)c4nc23)cc1	2.4%
CCn1c(C)nc2cc(C(=O)NN=C(C)c3ccc(C#N)cc3)ccc21	43.5%[activator]
Cc1ccccc1OCCC(=O)OCC(=O)c1c(N)n(CC(C)C)c(=O)n(C)c1=O	1.9%
CC1CC(C)CN(C(=O)CSc2nnc(-c3ccc(Cl)cc3)o2)C1 (stereo not drawn)	-2.9%
Cc1ccc2nc(-c3ccncc3)cc(C(=O)Nc3ccc4c(c3)OCCO4)c2c1	-11.9%
COc1cc(Nc2nc3c(N)cc(C(F)(F)F)cc3nc2-c2ccccc2)cc(OC)c1OC	-1.2%
CCOC(=O)C1=C(C)NC(=S)NC1c1cccc(O)c1 (stereo not drawn)	-14.2%&6.0%&-17.8%
CCOc1ccc(-c2ccc(NS(=O)(=O)c3cc([N+](=O)[O-])c(C)c([N+](=O)[O-])c3)cc2)nn1	10.7%
Cc1nnc(NC(=O)CSc2nnc(CC(=O)Nc3ccccc3Cl)n2C)s1	0.7%
FC(F)(F)c1cc(-c2cccs2)nc2cc(-c3ccccc3)nn12	-7.0%
Cc1ccc(C(=O)N/C(=C\c2cccs2)C(=O)NCc2cccnc2)cc1	9.6%
CC(C)NC(=O)c1ccc(Cl)cc1Cl	-10.3%
O=C(c1ccc(Cl)cc1)c1cc(-c2ccccn2)c(N2CCOCC2)s1	-8.3%
O=C(Cn1cnc2ccccc2c1=O)Nc1ccc2c(c1)OCO2	0.1%
COc1cc(OC)c(NC(=O)Nc2ccc3c(c2)N(C)C(=O)c2ccccc2S3)cc1Cl	-7.6%
COCCCNC(=O)Nc1ccc2c(c1)N(C)C(=O)CS2	8.8%
COc1cc(C2c3cc4c(cc3C(OC3OC5COC(c6cccs6)OC5C(O)C3O)C3COC(=O)C23)OCO4)cc(OC)c1O (stereo not drawn)	-8.8%
CCOc1nc(-c2ccccc2)c2cc(C)ccc2n1	-22.2%
COc1ccc2c(c1)Cc1sc(NC(=O)c3cccc(Cl)c3)nc1-2	-27.7%
CCn1c(=O)n(-c2ccc(C)c(F)c2)c(=O)c2sc3ccccc3c21	-7.3%
CCCc1ccc(OCc2ccc(C(=O)OC)o2)c(OC)c1	-2.5%
CCOc1ccccc1N1CCN(C(=O)c2ccc(NS(=O)(=O)c3ccc4[nH]c(=O)[nH]c4c3)cc2)CC1	-8.2%
CCn1cc([N+](=O)[O-])c(C(=O)N2N=C(c3cccc4ccccc34)CC2c2ccccc2O)n1 (stereo not drawn)	0.3%
NC(N)=N/N=C(\N=Nc1ccccc1)c1cccc2cccnc12	-8.2%
COc1ccc(NC(=O)CSc2nc(-c3ccccc3)[nH]c2-c2ccccc2)cc1OC	11.0%
O=C(CSc1nnc2ccccn12)Nc1cccc(-c2nc3ccccc3s2)c1	3.1%
CCC(CC)c1nnc(NC(=O)CCCN2C(=O)c3ccccc3C2=O)s1	-7.7%
O=C(COC(=O)COc1ccc2c(c1)CCC2)Nc1ccccc1	4.9%
COC(=O)CCNC(=O)c1nn(Cc2ccccc2)c(=O)c2ccccc12	-8.1%
O=Cc1cnc(N2CCOCC2)nc1	9.5%
C(=N\Nc1nccc(-c2cccnc2)n1)/c1ccccc1	-24.9%
COc1ccc(CCN(Cc2ccccn2)C(=S)Nc2ccc(C)cc2)cc1OC	-2.0%
CC1=C(C(=O)Nc2ccc(C)cc2)C(c2cccs2)NC(=S)N1 (stereo not drawn)	-9.6%
CCCCCCCCn1c2c(c(=N)c3c1CCC3)CCCC2	-8.6%
C=CCc1cc(/C=C/c2nc(O)c([N+](=O)[O-])c(=O)[nH]2)cc(OC)c1O	79.4µM*
O=C(O)CNC(=S)NCc1ccccc1	-2.9%
Cc1ccc(N(Cc2ccccc2)C(=O)c2ccc(F)cc2)cc1	6.3%
CCn1c(CN2CCN(c3ccc(Cl)cc3)CC2)nc2ccccc21	18.1%
COc1ccc2[nH]c(=O)c(CN(C(=O)c3ccco3)C3CCCCC3)cc2c1	-2.8%
CC1=C[C@H]2Cc3cc(C)cc(C)c3S(=O)(=O)[C@@H]2C=C1	-9.2%
CCc1nc(SCC(=O)Nc2ccc(N(C)C)cc2)n[nH]1	-17.1%
Cc1nc(N2CCN(Cc3nc4ccccc4[nH]3)CC2)c2oc3ccccc3c2n1	-5.7%
CC1(C)CC(N2CCN(CCO)CC2)=CC(=S)N1	-22.2%
COc1ccccc1CCNC(=O)c1nc(-c2cccs2)no1	-7.7%
COc1ccccc1CCn1c(=O)c(-c2ccc(F)cc2)nc2cncnc21	11.9%
COc1ccc([N+](=O)[O-])cc1N(CC(=O)Nc1ccccc1C(=O)NC(C)C)S(C)(=O)=O	0.7%
CCOC(=O)C1(CC2CC2)CCN(Cc2cn[nH]c2-c2ccccc2)CC1	2.6%
CCOc1ccc(OCCn2nnc3ccccc3c2=O)cc1	-8.5%

Part of the list above in a different format:
VDR inhibitor	SMILES
-17.1%	CCc1nc(SCC(=O)Nc2ccc(N(C)C)cc2)n[nH]1
-8.5%	CCOc1ccc(OCCn2nnc3ccccc3c2=O)cc1

The list goes on:
SMILES	VDR inhibitor
Cc1ccccc1NC(=S)NCCSc1ccc(Cl)cc1	-3.8%
CCc1ccc[n+](-c2[nH]c(=O)sc2/C=N/NC([S-])=Nc2ccccc2)c1	?
CCCNC(=O)c1ccccc1NC(=O)Nc1ccccc1C	-0.7%
COc1cccc2c1N(C)C(=O)CC21C=CC(=O)C=C1	41.5%[activator]
COc1ccc(C(=O)NCCS(=O)(=O)NC(C)c2ccccc2)cc1 (stereo not drawn)	9.3%
COc1ccc(Cl)cc1-c1nc(SCC(=O)NCC2CCCO2)n[nH]1 (stereo not drawn)	4.8%
COc1ccccc1CNc1ncncc1-c1ccccc1C(F)(F)F	-23.2%
N#C/C(=C\c1ccc(-c2cccc([N+](=O)[O-])c2)o1)C(=O)Nc1nc(-c2cccs2)cs1	3.6%
COCc1cc(C)nc2sc(C(=O)Nc3ccccc3OC)c(N)c12	-3.0%
Cc1nc2ccc(S(=O)(=O)Nc3ccc(-c4nc5cccnc5s4)cc3)cc2s1	-9.4%
CC(=O)Nc1ccc(NC(=O)C(Cc2ccccc2)NC(=O)C2CCC(C)CC2)cc1 (stereo not drawn)	-12.6%
CC(NC(=O)COC(=O)c1cc(=O)c2ccccc2o1)c1ccccc1 (stereo not drawn)	-13.6%
O=[N+]([O-])c1cc2oc3c(c2c(C=NCc2ccncc2)c1O)CCCC3	?
COCCSc1ccccc1C(=O)Nc1ccc(S(=O)(=O)N2CCOCC2)cc1	10.8%
CC(C)=CCn1cnc2c1C(NOCc1ccccc1)=NCN2	-8.4%

Some of these compounds in order of molecular weight, lowest first.
SMILES	VDR inhibitor
Cc1ccccc1NC(=S)NCCSc1ccc(Cl)cc1	-3.8%
CC(NC(=O)COC(=O)c1cc(=O)c2ccccc2o1)c1ccccc1 (stereo not drawn)	-13.6%
COc1ccccc1CNc1ncncc1-c1ccccc1C(F)(F)F	-23.2%
Cc1nc2ccc(S(=O)(=O)Nc3ccc(-c4nc5cccnc5s4)cc3)cc2s1	-9.4%

More entries follow.
SMILES	VDR inhibitor
O=C(Nc1cc(-c2nc3cc(Cl)ccc3o2)ccc1Cl)c1ccco1	44.1%[activator]
CCOC(=O)c1c(NC(=O)CSc2ncccn2)sc(C(=O)NC)c1C	-10.0%
N#Cc1ccc(NC(=S)NCCN2CCOCC2)cc1	2.2%
O=C(Cn1cnc2cc([N+](=O)[O-])ccc2c1=O)Nc1ccccc1-c1ccccc1	10.7%
COc1ccc(/C=N/NC(=O)c2c(C)nc3ccc(Br)cn23)cc1OC	7.5%
N/C(=N/O)c1nc(N2CCCCC2)nc(N2CCCCC2)n1	18.4%
Cc1ccc(C2=N/C(=C\c3cccnc3)C(=O)O2)cc1	-5.3%
O=C(CCC(=O)c1cccs1)NCC(c1ccc(F)cc1)N1CCOCC1 (stereo not drawn)	9.0%
COC(=O)CCC(=O)OC1(C)C(=O)C2=COC(c3ccc(OC)cc3)=CC2=C(Br)C1=O (stereo not drawn)	?
Cc1occc1C(=O)NNC(=S)Nc1cccc([N+](=O)[O-])c1	9.6%
Cc1ccc(C)c(S(=O)(=O)NC2CCS(=O)(=O)C2)c1 (stereo not drawn)	-7.3%
CSc1cccc(NC(=O)CN2CCN(Cc3ccccc3C)S2(=O)=O)c1	0.2%
Oc1ccccc1C(=S)N1CCN(C(=S)c2ccccc2O)CC1	-23.4%
O=C1CCCCC1CCc1ccncc1 (stereo not drawn)	-15.7%
O=C(c1c[nH]c2ccccc2c1=O)N1CCCCCC1	-7.5%
C[C@H](NC(=O)CNC(=O)[C@@H](NC(=O)[C@H](Cc1ccccc1)NC(=O)CNC(=O)CNC[C@@H](N)Cc1ccccc1)[C@@H](C)O)C(=O)N[C@@H](CCCN=C(N)N)C(=O)N[C@@H](CCCCN)C(=O)N[C@@H](CO)C(=O)N[C@@H](C)C(=O)N[C@@H](CCCN=C(N)N)C(=O)N[C@@H](CCCCN)C(N)=O	-3.8%
CN(C)S(=O)(=O)c1ccc(C(=O)Nc2ccccc2SCCC#N)cc1	-5.3%
c1ccc(-n2ncc3c(NCCN4CCOCC4)ncnc32)cc1	20.4%
COc1ccc(NC(=O)CCc2nnc3ccc(N4CCC(C)CC4)nn23)cc1OC	-8.0%
COc1ccccc1C1C=C(c2ccc(C)cc2)Nc2nnnn21 (stereo not drawn)	-6.5%
Cc1ccc(S(=O)(=O)N2CCSC2c2ccco2)cc1 (stereo not drawn)	-10.3%
COc1cc(OC)c(NC(=O)c2cnn(-c3cccc(Cl)c3C)c2C2CCN(C(=O)OC(C)(C)C)CC2)cc1Cl	1.3%
CCn1c(SCC(=O)c2c[nH]c3ccccc23)nc2cc(S(=O)(=O)N3CCOCC3)ccc21	-19.3%
Cc1ccc(C2C(C(=O)c3cccs3)=C(O)C(=O)N2c2cccc(C)n2)cc1 (stereo not drawn)	-23.9%
CC(=O)Nc1ccc(S(=O)(=O)N2CCN(c3cc4c(cc3[N+](=O)[O-])n(C)c(=O)n4C)CC2)cc1	-14.0%
COc1ccc2c(c1)c1c(c(=O)n(-c3ccccc3)c(=O)n1CC(=O)Nc1ccc(F)cc1)n2C	20.3%
COc1cc(OC)cc(C(=O)NCc2ccc(-n3cccc3)cc2)c1	6.0%
Cc1nn(C)c(C)c1NC(=O)CCCSc1nc(-c2ccco2)cc(C(F)(F)F)n1	-3.2%
Cc1cccc(N(C)S(=O)(=O)c2nnc(NC(=O)C3CCCCC3)s2)c1	-7.8%
COc1ccc(NC(=O)CSc2nnc(NC(=O)C3CCC3)s2)c(OC)c1	-11.6%

Shown field by field: 3 of the compounds above
SMILES: CN(C)S(=O)(=O)c1ccc(C(=O)Nc2ccccc2SCCC#N)cc1
  VDR inhibitor: -5.3%
SMILES: c1ccc(-n2ncc3c(NCCN4CCOCC4)ncnc32)cc1
  VDR inhibitor: 20.4%
SMILES: COc1ccc(NC(=O)CCc2nnc3ccc(N4CCC(C)CC4)nn23)cc1OC
  VDR inhibitor: -8.0%

Next part.
SMILES	VDR inhibitor
Cc1ccc(NC(=O)c2ccc(NC(=O)N3CCSc4ncccc43)cc2)c(Cl)c1	12.7%
COc1ccc(C(=O)N2CCN(S(=O)(=O)c3ccc(C)cc3C)CC2)cc1S(=O)(=O)N1CCOCC1	-2.8%
COC(=O)c1ccccc1NC(=O)COC(C)=O	2.4%
CC(C)NC(=O)Cn1c(=O)nc(-c2ccccc2)c2ccccc21	8.7%
O=C1CCCC2CCCCN12 (stereo not drawn)	-0.1%
O=C(c1ccccc1)N(Cc1ccc(F)cc1)Cc1nc2ccccc2c(=O)[nH]1	21.0%
CCN1CCN(c2ncnc3sc(C(=O)Nc4ccccc4F)c(C)c23)CC1	8.9%
Cc1cccc(C)c1NC(=O)CN(C)C(=O)Cc1cccc(C(F)(F)F)c1	8.4%
O/N=C1\CC/C(=N\O)c2nn(-c3ccc(Cl)cc3Cl)nc21	-18.7%
Cc1cccc(OCCCn2c(=O)oc3ccc(C)cc32)c1	-17.0%
CCOC(=O)CN1NC2(CCC(C(C)(C)C)CC2)NC1=S (stereo not drawn)	8.9%
Cc1cc(N2CCCCC2)nc2ccc(NC(=O)c3ccc(F)cc3)cc12	-7.0%
COc1ccc(C(=O)Oc2ccc(C(=S)N3CCOCC3)cc2)cc1	70.8µM*
CC1CCN(c2ccc3c(c2)S(=O)(=O)c2cccc(C(=O)NC4CCCCC4)c2C3=O)CC1	-17.3%
CCOC(=O)C1(C)NC(c2ccc(O)cc2)C2C(=O)N(c3ccccc3)C(=O)C21 (stereo not drawn)	1.3%
C[C@@H]1COC(=O)[C@H](NC(=O)OCC2c3ccccc3-c3ccccc32)C/C=C\C[C@@H](CC(=O)N[C@H](CO)Cc2ccccc2)C(=O)N1	11.2%

The list is partial; rates above refer to the full screens.
